ALR H2O2 inh: human ALR oxidase inhibition via reduced H2O2 | inhibition, % (concentration not given with the values) | AID 485317 | 290,000 compounds, 3.8% hits | purified ALR, DTT oxidation, H2O2 HRP-luminol luminescence;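 active means mean and each replicate at 75% or more; inconclusive means only one of the two met; inactive means neither met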;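 further: stock transfer was 7.5 nL into about 7.5 µL; 0% = neutral wells and 100% = wells with inactivated enzyme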
Target sequence (P55789 whole entry, looked up): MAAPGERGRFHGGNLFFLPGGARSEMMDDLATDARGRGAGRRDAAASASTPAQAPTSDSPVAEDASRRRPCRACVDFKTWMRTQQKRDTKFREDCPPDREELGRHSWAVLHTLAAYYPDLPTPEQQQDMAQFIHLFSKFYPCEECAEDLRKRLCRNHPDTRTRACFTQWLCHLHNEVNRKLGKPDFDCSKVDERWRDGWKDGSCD
Calb FLC: affects C. albicans growth with fluconazole | C. albicans CaCi-2 (fluconazole-resistant clinical isolate) + fluconazole, Alamar Blue growth, 48 h | growth inhibition, % (test concentration not listed) | 300,000 compounds, 0.57% hits | AID 1979;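 active means most replicates above 75%; inconclusive means exactly half above 75%; inactive means most below 75%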;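 further: all wells also contain fluconazole at 8 µg/ml as a sub-toxic cotreatment; 0% = median of DMSO wells and 100% = median of geldanamycin control wells; wells of about 8 µL received 7.5 nL stock; the first replicate is given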
Beta2AR agonist: human beta-2 adrenergic receptor agonism by FAP; P07550; Am2.2-beta2AR cells, FAP receptor internalization, flow cytometry; reference of the scale not given here; response, % (test concentration not listed); 340,000 compounds, 0.43% hits; AID 504454;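 active means response above a set limit, near 3 SD of response in nonfluorescent compounds, cut at about 42% in these data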;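 further: stock transfer was 100 nL into about 11 µL; a reference agonist was the positive control; negative values mostly stem from fluorescent compounds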
Target sequence (P07550 whole entry, looked up): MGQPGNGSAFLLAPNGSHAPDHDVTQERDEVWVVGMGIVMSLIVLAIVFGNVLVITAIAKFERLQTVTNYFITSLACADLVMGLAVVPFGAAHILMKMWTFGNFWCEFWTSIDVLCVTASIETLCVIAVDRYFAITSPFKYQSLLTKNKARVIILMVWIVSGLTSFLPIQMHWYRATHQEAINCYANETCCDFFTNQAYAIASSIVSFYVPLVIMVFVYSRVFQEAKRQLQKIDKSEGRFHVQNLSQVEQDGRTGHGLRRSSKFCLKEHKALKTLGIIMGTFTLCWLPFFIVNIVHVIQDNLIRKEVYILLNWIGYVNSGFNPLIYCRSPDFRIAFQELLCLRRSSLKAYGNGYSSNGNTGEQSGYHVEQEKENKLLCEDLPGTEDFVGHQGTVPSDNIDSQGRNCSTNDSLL
HNF4A DNA FP: change in binding of human HNF4 alpha to DNA. activity change, % at 10 µM. HNF4a-FITC DNA binding, fluorescence polarization, 1 h. 360,000 compounds, 0.3% hits; in the data active means activity change above about 30%, passing the limit was not always enough;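 further: controls were the assay level and a saturating level of protein; the project sought stronger binding though the title names inhibitors; some compounds called inactive have numbers as strong as hits; positive values seem to mean higher polarization but the record does not say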
LANA-H2B inh: blocks KSHV LANA binding to histone H2A/H2B; Q9QR71; cell-free LANA-H2A/H2B peptide, fluorescence polarization; inhibition, % (no concentration beside the values); 320,000 compounds, 0.6% hits; AID 2629; in the data active means inhibition mostly above about 10%, no sharp cut-off; inactive means mostly below about 6.7%;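 further: stock transfer was 7.5 nL into about 10 µL; 0% = median of vehicle wells and 100% = median of positive control wells; one replicate is shown; the record names a cut of 25% in any replicate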
Vif A3G: inhibitors of Vif binding to APOBEC3G peptide, primary screen, biochemical, TR-FRET, GST-Vif 1-94, biotin-A3G peptide, dose response retest (AID 1117319); inhibition, %; hits with a dose series show IC50 in µM; 260,000 compounds, 0.57% hits; TR-FRET GST-Vif / biotin-A3G peptide binding; higher % means a stronger effect; test concentration not given here; strong numbers were not always called active;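 active means above the screen mean plus three standard deviations and confirmed in dose response; inconclusive means results disagree or hit not tested in dose response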;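 further: Vif residues 1-94 fused to GST binding biotinylated APOBEC3G peptide 110-148; 0% = full assay without inhibitor and 100% = GST in place of GST-Vif; retest series ran down from 100 µM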
RanGTP-Imp inh: disruptors of Ran-importin-beta complex formation – biochemical, FRET, CFP-Ran, YFP-importin-beta, homogeneous, primary screen; inhibition, % (concentration not given with the values); AID 2216; cell-free CFP-Ran/YFP-importin-beta FRET ratio; 300,000 compounds, 1.1% hits;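 active means most replicates above 15%; inconclusive means exactly half above 15%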;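 further: 0% = DMSO wells and 100% = Ran loaded with GDP instead of GTP; wells of about 40 µL received 100 nL stock; the first replicate is given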
* hit, by the source's call; ? = inconclusive; . = not tested or not shown; + = active, no number; & = joins results of further samples.

no.	canonical_smiles	ALR H2O2 inh	Calb FLC	Beta2AR agonist	HNF4A DNA FP	LANA-H2B inh	Vif A3G	RanGTP-Imp inh
1	CC(C)(C)c1cc(C(F)(F)F)n2ncc(-c3ccccc3)c2n1	-4	-7	-13	3.0	2.3	1%	-4.1
2	COC(=O)C1=C(C)N(Cc2ccccc2)C(=S)N[C@H]1c1cccc(F)c1	1	-7	4	0.3	-2.2	.	?
3	Cc1ccc(NC(NC(=O)c2cccnc2)C(Cl)(Cl)Cl)cc1 (centres undefined)	99*	-12	7	0.8	-3.7	1%	-0.1
4	COc1ccc(N2CCN(CCCNC(=O)C3(S(=O)(=O)c4ccc(Cl)cc4)CC3)CC2)cc1	85*	0	4	2.4	-8.5	0%	-0.2
5	O=C(NC1CCCCC1)c1cc(-c2cccs2)on1	.	-4	-8	-1.0	2.5	.	0.2
6	N#C/C(=C\c1c(N2CCN(Cc3ccccc3)CC2)nc2ccccn2c1=O)S(=O)(=O)c1ccccc1	1	-5	7	11	4.4	.	-5.9
7	C=C1CC2C(=O)N(Cc3cc(OC)ccc3OC)C(C(=O)OCC)(C(=O)OCC)C1N2C(=O)OC(C)(C)C (centres undefined)	-11	6	-6	-1.4	-3.2	.	1.5
8	CCOC(=O)c1[nH]c(C)c(/C(O)=C2\C(=O)C(=O)N(CCCN(CC)CC)C2c2cccnc2)c1C (centres undefined)	-3	-5	3	6.5	2.6	.	1.6
9	CCOC(=O)c1nc(Nc2cc(C)cc(C)c2)c2ccccc2n1	0	5	-3	1.0	1.7	.	0.8
10	COc1ccc(-c2sc3cc(OC)c(OC)cc3c2-c2ccc(O)cc2)cc1	-2	.	19	2.4	+	-10%	.
11	Cc1cc(C)c(S(=O)(=O)c2ccccc2)c(OC(=O)c2cc(F)c(F)cc2Cl)n1	4	4	1	-0.6	-1.2	1%	5.6
12	CC(=O)c1[nH]c(C)c(C(=O)N2CCCC(Nc3ccc(C(C)C)cc3)C2)c1C (centres undefined)	.	-5	-12	-0.6	.	.	5.4
13	O=C(CCC(=O)c1ccc(Oc2ccccc2)cc1)Nc1cccc(Cl)c1Cl	1	5	-5	5.5	2.0	4%	0.9
14	CC(C)c1nnc(NC(=O)c2cnccn2)s1	-4	4	2	-1.3	-3.0	1%	-3.4
15	O=C(NCCS(=O)(=O)N1CCN(c2ccccc2)CC1)C1CCCC1	3	-2	0	-0.9	6.3	2%	2.0
16	C[C@H]1CN([C@@H](C)CO)C(=O)c2cc(NC(=O)C3CCCCC3)ccc2O[C@H]1CN(C)Cc1ccc(-c2ccccc2)cc1	2	.	16	4.6	-8.3	.	.
17	CCC(CC)C(=O)NCCc1ccc(S(N)(=O)=O)cc1	-13	-3	6	-0.1	-2.3	14%	-1.5
18	O=C(CCN1CCOCC1)NNC(=S)NC(=O)c1ccccc1	99*	-3	3	-0.8	-0.7	11%	1.3
19	Cc1cccn2c(Nc3ccccc3)c(-c3ccccn3)nc12	.	-8	-17	4.5	2.2	6%	-3.8
20	COc1ccccc1OCC(=O)N1CCCC(Nc2ccc(C)c(C)c2)C1 (centres undefined)	98*	11	0	-3.7	-5.0	11%	2.1
21	Cc1ccc(Oc2ccc(NC(=O)C3=CC=CN4CCS(=O)(=O)N=C34)cc2)cc1	-3	.	3	2.3	-3.1	-10%	.
22	Cc1cc(-c2nnc(SCC(=O)Nc3ccc(F)c(F)c3)n2N)n[nH]1	-5	-2	3	-0.6	-2.3	.	0.7
23	O=C(NCc1cccnc1)c1ccc(-c2cc(Cl)ccc2Cl)o1	11	8	-9	-1.1	13	3%	-1.3
24	COCCNc1ccc(N2C(=O)CCCC2=O)cc1[N+](=O)[O-]	2	4	0	7.7	1.4	0%	-0.2
25	COc1ccc(N(CC(=O)Nc2ccc3c(c2)OCCO3)S(C)(=O)=O)c(OC)c1	-25	2	-5	2.5	-1.5	15%	9.1
26	CCCCN(C(=O)c1cccc(S(=O)(=O)N2CCCCC2)c1)C1CCS(=O)(=O)C1 (centres undefined)	0	20	-7	1.7	-2.1	.	3.1
27	COc1cc(Cl)c(C)cc1N1C(=O)CN(Cc2ccccc2)C1=S	0	1	0	-0.3	-7.2	-12%	-1.2
28	O=C(c1cccc(C(F)(F)F)c1)C1CCCN(Cc2cccn2-c2ncccn2)C1 (centres undefined)	-3	24	4	1.6	2.3	9%	0.9
29	O=C(NCc1ccccn1)c1cc(-c2ccc(-c3ccccc3)cc2)nc2ccccc12	-6	9	4	4.5	3.3	.	-9.8
30	CC(CCc1ccccc1)NC(=O)c1ccccc1 (centres undefined)	-4	6	-2	-0.1	1.2	1%	1.8
31	CCc1nnc(NC(=O)CCNC(=O)c2ccccc2Cl)s1	-9	-11	2	-1.6	1.1	.	-5.4
32	Cc1ccc(N(Cc2ccccc2)C(=O)c2ccc(S(=O)(=O)N3CCOCC3)cc2)cc1	0	6	9	-0.6	-0.8	5%	2.8
33	CC(=O)c1cccc(NC(=O)CN2C(=O)c3cccnc3Oc3ccc(Cl)cc32)c1	-10	-1	12	20	10	4%	1.0
34	CCN(c1ccccc1)S(=O)(=O)c1ccc(OC)c(NC(=O)Cc2ccc(F)cc2)c1	-3	.	-4	-1.4	3.0	5%	.
35	O=C(CS(=O)(=O)c1ccccc1)Nc1ccc(S(=O)(=O)Nc2ncccn2)cc1	-15	-27	-2	0.2	-6.3	-2%	1.6
36	O/N=C/c1cn(-c2ccccc2)nc1-c1ccccc1	34	-4	-2	4.9	2.1	-4%	-1.0
37	CCC(NC(=S)NC1CCCCC1)c1ccccc1 (centres undefined)	-12	-38	-1	-1.3	-2.4	.	1.0
38	CCCC(=O)N(Cc1cc(=O)[nH]c2ccccc12)c1ccc(OC)cc1	-2	1	0	1.7	3.6	8%	-4.9
39	Cc1ccc(S(=O)(=O)C2(C(=O)N3CCCCC3C)CC2)cc1 (centres undefined)	-14	.	2	0.2	-1.1	5%	.
40	CCCn1c(SCC(=O)c2c(C)[nH]c(C)c2C(=O)OCC)nc2ccccc21	4	-13	0	-0.9	-5.6	.	0.6
41	COc1ccc(CNC(=O)Cn2nc(C)c3c(C)n(-c4ccc(C)cc4)nc3c2=O)cc1OC	-1	-2	6	-2.1	2.8	-2%	3.5
42	CCOC(=O)N1CCN(S(=O)(=O)CCNC(=O)c2ccc(F)cc2)CC1	-1	-5	3	-2.1	-2.5	-1%	3.2
43	O=C(Nc1ccc(F)cc1)C1CCN(C(=O)c2ccc([N+](=O)[O-])cc2)CC1	-5	-5	0	-1.2	4.0	-11%	-7.5
44	C=CCC(C#Cc1ccccc1)N(C)C (centres undefined)	-4	18	-4	2.9	-0.8	2%	0.9
45	COc1cccc(-c2c(C(=O)N/N=C/c3sccc3C)nnn2-c2nonc2N)c1	-5	-8	1	2.9	0.3	.	-2.0
46	CCOc1cc(C(=O)N/N=C/c2ccoc2)cc(OCC)c1OCC	-7	2	-7	-1.2	-5.9	.	.
47	CCOC(=O)c1ccc2c(c1)nc(SCC(=O)N1CCOCC1)n2CC	-5	2	-1	4.5	-1.8	2%	-0.8
48	c1csc(CNc2ncnc3sccc23)c1	-21	85*	-4	1.8	4.1	-9%	1.4
49	Cc1cc(C)n(C(C)CC(=O)Nc2ccc3c(c2)OCCO3)n1 (centres undefined)	-2	-1	-2	0.9	-2.0	4%	4.8
50	S=C(c1cn(CCOc2ccccc2)c2ccccc12)N1CCCC1	.	-1	-4	-2.0	0.4	23%	1.3

Remaining list, next part.
no.	canonical_smiles	ALR H2O2 inh	Calb FLC	Beta2AR agonist	HNF4A DNA FP	LANA-H2B inh	Vif A3G	RanGTP-Imp inh
51	Nc1cc2c(cc1Cl)N(Cc1ccccc1)C(=O)CO2	.	.	-3	2.4	-0.8	-5%	.
52	CSc1ccc(C(c2c(C(=O)O)[nH]c3ccccc23)c2c(C(=O)O)[nH]c3ccccc23)cc1	52	3	0	-3.6	3.2	.	4.7
53	COC(=O)c1ccc(S(=O)(=O)NCc2ccccc2)n1C	.	1	-4	0.3	1.5	.	-3.7
54	COCCNC(=O)Cn1nc(-c2ccc(Cl)cc2)c2ccccc2c1=O	-6	8	-4	1.1	-1.6	-1%	-0.5
55	Cc1ccc(-n2ncc3c2CC(C)(C)CC3NC(=O)c2c(C)noc2C)cc1 (centres undefined)	-9	16	-7	7.8	1.7	.	7.3
56	COc1ccccc1C(=O)NC(=Nc1nc2ccccc2o1)NC(=O)c1ccccc1OC	-8	6	-5&14	2.8&-1.0	1.7	-7%&9%	-1.7
57	Nc1ccccc1Nc1cccc(C(F)(F)F)c1	-10	-23	19	0.5	-5.1	.	?
58	Cc1cc(C(=O)Nc2cccc(NC(=O)c3ccco3)c2)ccc1[N+](=O)[O-]	-9	-4	-1	0.4	4.0	-1%	.
59	O=C(COC(=O)c1cccc(C(F)(F)F)c1)NCc1ccccc1	-9	-3	3	-2.8	-1.4	30%	7.3
60	COc1ccccc1NC(=O)C(C)OC(=O)c1ccc(-n2cnnn2)cc1 (centres undefined)	7	5	1	-5.5	-6.6	4%	-1.9
61	CCOC(=O)N1CCN(C(=S)NC(=O)c2ccc(F)cc2)CC1	-1	10	.	.	-1.9	0%	3.6
62	Cc1ccc([N+](=O)[O-])cc1NC(=S)NC(=O)c1cccs1	6	-5	7	0.2	7.2	.	4.3
63	CC(C)(C)c1nn(-c2ccccc2)c2[nH]c(=O)c(CNCc3ccc4c(c3)OCO4)cc12	-2	-24	-10	2.8	-8.7	-2%	2.2
64	COc1ccc(CNC(NC(=O)c2ccccc2)(C(F)(F)F)C(F)(F)F)cc1	-15	1	7	-0.3	-2.9	3%	1.2
65	Cc1ccc(-c2nnn(CC(=O)N3CCCCC3)n2)c(-n2cnnn2)c1	-16	-7	-10	-0.3	7.9	?	6.8
66	CC1=CCP(=O)(c2ccccc2)C1 (centres undefined)	0	-1	6	0.5	2.9	2%	?
67	Cc1cc(C=C2C(=O)CCCC2=O)c(C)n1-c1ccccc1	.	8	8	-6.9	3.9	.	0.7
68	O=C(CNC(=S)N(Cc1ccccc1Cl)C1CCCC1)NCCN1CCOCC1	.	26	-4	-2.5	0.5	15%	2.8
69	O=C(COc1ccc2ccccc2c1)N1CCCC1	-26	29	3	0.6	-0.8	-7%	6.4
70	COCCN(CCOC)Cc1c(O)ccc2c1O/C(=C\c1ccco1)C2=O	-16	30	-6	-31	9.2	25%	-57

Not a hit list; any-hit rate near 6.3%.
